TAR Tat displ: HIV-1 TAR-Tat binding disruption | AID 1259389 | actives 0.6% (n = 100,000) | HIV-1 TAR RNA, Tat peptide displacement FRET; stronger effect = higher value | z-score (no concentration beside the values);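 note: score is relative to mean and SD of negative controls; some compounds called inactive have numbers as strong as hits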
CDC25B-CDK2 inh: human CDC25B-CDK2/CyclinA binding inhibition. P30305+P24941. HTRF CDC25B-CDK2/CyclinA binding, anti-His/anti-Flag; stronger effect = higher value. z-score (concentration not given with the values). actives 0.72% (n = 94,000). AID 1259370;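 note: score is relative to mean and SD of negative controls; strong numbers were not always called active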
* = called active by the depositor; · = no result given.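 Rule for the calls: active = z-score from 3 up in half or more of its runs; inactive = the rest.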

SMILES | TAR Tat displ | CDC25B-CDK2 inh
CCc1cc(C2CCCN2C(=O)c2cnn3c(C(F)F)cc(-c4ccccc4)nc23)on1 (stereo not drawn) | 1.34 | ·
COc1ccc(-c2c(C(F)(F)F)oc3cc(OC(C)=O)ccc3c2=O)cc1OC | 3.6 | -2.78
CCS(=O)(=O)c1ccc(-c2ccc(NC(=O)C3CCCC3)cc2)nn1 | -1.29 | ·
O=C(C[n+]1ccc(C(=O)NCc2ccccc2)cc1)c1ccc(-c2ccccc2)cc1 | · | -13
CC1(C)CC(=O)c2sc(NC(=O)CSc3nc(-c4ccccc4)c(C#N)c(=O)[nH]3)nc2C1 | -1.2 | -0.15
NC(=O)CSc1nnc2c3ccccc3nc(-c3ccc(F)cc3)n12 | 1.18 | ·
COc1ccc(C2C(C(=O)OC3CCCCC3)=C(C)NC3=C2C(=O)CC(C)(C)C3)c(OC)c1 (stereo not drawn) | -2.55 | -1.71
O=C(c1cc2ccc3cccnc3c2[nH]1)N1CCN(Cc2ccc3c(c2)OCO3)CC1 | 2.54 | ·
c1ccc(CN2CCC(n3nnc4cccnc43)CC2)cc1 | 1.23 | -1.47
Cc1cc(=O)n2nc(N(C)CC(=O)NC3CCCC3)sc2n1 | 1.38 | -0.71
CC1CCCCC1NC(=O)c1ccc2c(c1)NC(=O)C1CCCN21 (stereo not drawn) | -0.21 | -2.52
COC(=O)c1c(S(=O)(=O)N2CCOCC2)c(C)n(C)c1C | · | -0.54
CC(CC1CC(C)(C)OC1=O)c1nc(=S)[nH][nH]1 (stereo not drawn) | · | -0.48
CCOC(=O)c1c(C)oc2c(CN3CCOCC3)c(Cl)c(OC)c(O)c12 | · | -2.29
O=C1c2oc3ccc(F)cc3c(=O)c2C(c2ccc(O)cc2)N1Cc1ccc2c(c1)OCO2 (stereo not drawn) | -0.19 | -0.22
CN(Cc1ccco1)S(=O)(=O)c1cc2c(cc1Cl)NC(=O)CO2 | 1.2 | ·
Cc1ccc(-n2nc3c(c2NC(=O)c2ccc4c(c2)OCO4)CS(=O)C3)cc1 (stereo not drawn) | · | -0.09
Cc1cccc(C(=O)OCc2cc(=O)n3nc(-c4cccs4)sc3n2)c1 | -0.65 | ·
Cc1nc(N2C(=O)c3oc4ccccc4c(=O)c3C2c2ccco2)sc1C (stereo not drawn) | -0.34 | -2.81
Cc1ccc(Cl)cc1-n1ncc2c(NCCCO)ncnc21 | 1.55 | ·
Nc1nc(-c2ccc(Cl)cc2)cs1 | -1.45 | -0.14
Nc1cccc(-c2nc3ccc(N)cc3[nH]2)c1 | 3.03 | -0.89
O=C1CC(c2ccccc2)C(C(=O)O)N1 (stereo not drawn) | -0.09 | -0.31
FC(F)(F)c1ccc(-n2ccnc2)cc1 | · | -5.68
O=C(Cn1ccc2ccccc2c1=O)NCC1COc2ccccc2O1 (stereo not drawn) | · | -0.64
O=C(c1ccccc1)C1CCN(C(=O)CN2C(=O)c3ccccc3C2=O)CC1 | · | -1.62
COc1cc(C2c3c(-c4cc(C)ccc4O)n[nH]c3C(=O)N2Cc2cccnc2)ccc1O (stereo not drawn) | 0.55 | -0.35
COc1cccc(NS(=O)(=O)c2cn(C)c(C)n2)c1 | 0.56 | ·
O=S(=O)(NCC(c1ccco1)N1CCN(c2ccccc2F)CC1)c1ccc(F)cc1 (stereo not drawn) | 2.08 | ·
CCOC(=O)c1sc(NC(=S)NC(=O)c2ccc(C(F)(F)F)cc2)nc1C | · | -1.89
O=c1[nH]cnc2sc(N3CCCCCC3)nc12 | 0.91 | -0.79
CC(C)c1ccc(CNCCCSc2nnnn2C)cc1 | 2.29 | -1.26
O=C(Nc1cccnc1)N1CCC(Cc2cccc(Oc3ccc(C(F)(F)F)cn3)c2)CC1 | · | -1.75
O=C(CCC(=O)N1CC2CCCN2c2ccccc21)NCc1cccs1 (stereo not drawn) | -2.59 | ·
O=C(NCCCN1CCN(c2ccccc2)CC1)Nc1cccc2c1CCCC2 | 1.16 | -0.08
CC(C)n1cnc(S(=O)(=O)N2CCCC(C(=O)Nc3nccs3)C2)c1 (stereo not drawn) | 1.5 | ·
C=CCOc1ccc(C2/C(=C(\O)c3ccc(C)cc3)C(=O)C(=O)N2c2nnc(C)s2)cc1 (stereo not drawn) | -7 | -2.32
CCCCOc1ccc(C(=O)CCN2CCCCC2)cc1 | 1.49 | ·
Cc1nc2ccccc2n1CCc1nc2c3ccccc3nc(NCCc3c[nH]c4ccccc34)n2n1 | 0.7 | 1.1
O=c1c2cccnc2nc(SCc2cc(=O)n3ccccc3n2)n1CC1CCCO1 (stereo not drawn) | 13.6 | -0.89

Another view of 14 compounds above.
Compound	TAR Tat displ	CDC25B-CDK2 inh
O=C1c2oc3ccc(F)cc3c(=O)c2C(c2ccc(O)cc2)N1Cc1ccc2c(c1)OCO2 (stereo not drawn)	-0.19	-0.22
CN(Cc1ccco1)S(=O)(=O)c1cc2c(cc1Cl)NC(=O)CO2	1.2	·
Cc1ccc(-n2nc3c(c2NC(=O)c2ccc4c(c2)OCO4)CS(=O)C3)cc1 (stereo not drawn)	·	-0.09
Cc1cccc(C(=O)OCc2cc(=O)n3nc(-c4cccs4)sc3n2)c1	-0.65	·
Cc1nc(N2C(=O)c3oc4ccccc4c(=O)c3C2c2ccco2)sc1C (stereo not drawn)	-0.34	-2.81
Cc1ccc(Cl)cc1-n1ncc2c(NCCCO)ncnc21	1.55	·
Nc1nc(-c2ccc(Cl)cc2)cs1	-1.45	-0.14
Nc1cccc(-c2nc3ccc(N)cc3[nH]2)c1	3.03	-0.89
O=C1CC(c2ccccc2)C(C(=O)O)N1 (stereo not drawn)	-0.09	-0.31
FC(F)(F)c1ccc(-n2ccnc2)cc1	·	-5.68
O=C(Cn1ccc2ccccc2c1=O)NCC1COc2ccccc2O1 (stereo not drawn)	·	-0.64
O=C(c1ccccc1)C1CCN(C(=O)CN2C(=O)c3ccccc3C2=O)CC1	·	-1.62
COc1cc(C2c3c(-c4cc(C)ccc4O)n[nH]c3C(=O)N2Cc2cccnc2)ccc1O (stereo not drawn)	0.55	-0.35
COc1cccc(NS(=O)(=O)c2cn(C)c(C)n2)c1	0.56	·

Next entries:
SMILES | TAR Tat displ | CDC25B-CDK2 inh
O=C(c1ccc(CS(=O)c2ccc(F)cc2)o1)N1CCN(C2CCCCC2)CC1 (stereo not drawn) | 1.79 | ·
COC(=O)c1cc(-c2ccc(S(=O)(=O)Nc3cc(OC)cc(OC)c3)s2)on1 | -0.39 | ·
CCN(CC)CCCNc1ncnc2c1cnn2-c1ccc(F)cc1 | -0.53 | ·
CCCn1c(CCc2ccccc2)nnc1SCc1nc(-c2cccs2)no1 | 1.92 | -0.36
O=C(Nc1ccc(F)cc1)N1Cc2ccccc2Sc2ncccc21 | 0.75 | 0.04
COc1ccc(C(C)(C)C)cc1NS(=O)(=O)c1cccc2cccnc12 | · | -2.22
COc1ccc(NC(=O)C(=O)N2N=C(C(C)C)CC2(O)C(F)(F)F)cc1 (stereo not drawn) | · | -0.53
NC(=S)NNC(=O)c1ccc([N+](=O)[O-])o1 | · | -2.4
N#Cc1sc2nc3ccccc3n2c1/N=C/N1CCOCC1 | · | -2.03
COCC(=O)NCCn1c(C(F)(F)F)nc2ccccc21 | 0.82 | ·
CC(C)NC(=O)NCCn1cnc2cc(C(=O)N(C)C)ccc21 | -0.27 | ·
COc1ccc(-n2cc(-c3ccc(Br)cc3)[nH]c2=S)cc1 | · | -1.55
COc1cccc(OC)c1COC(=O)Nc1c(-c2ccccc2Cl)noc1C | · | -0.5
Cc1ccc(N(C)C(=O)CCS(=O)(=O)c2ccc3c(c2)oc(=O)n3C)cc1 | 1 | ·
O=S(=O)(c1ccc(Cl)cc1)N1CCN=C1COc1cccnc1 | · | -2.44
O=C(C1CCCCC1)N1CCN(c2ccc(F)cc2)CC1 | · | -0.53
CCCC12CN3CC(C)(CN(C1)C3c1ccc(OCc3ccccc3)cc1)C2=O (stereo not drawn) | 0.36 | -1.95
CSc1ccc(CCNC(=O)CN(C)c2nn3c(=O)cc(C)nc3s2)cc1 | 1.67 | -1.02
O=C(NCc1nc(-c2ccc3c(c2)Sc2ccccc2C(=O)N3C2CC2)no1)c1ccccc1 | 1.44 | ·
COc1ccc2c([N+](=O)[O-])c(N3CCOCC3)[nH]c2c1 | 1.15 | -1.66
Cc1cc(C)n(-c2nc3ccc(Cl)cc3nc2-n2nc(C)cc2C)n1 | 0.75 | -1.36
O=C(CNS(=O)(=O)c1cccs1)Nc1ccc(F)c(F)c1 | -0.56 | ·
Cc1ccc(-c2nc(CN3N=NC4C(=O)N(c5ccc(F)cc5)C(=O)C43)c(C)o2)cc1 (stereo not drawn) | 0.59 | ·
O=C(CCc1nc(-c2cccs2)no1)Nc1nccs1 | 1.16 | -0.59
Cc1ccc2nc(C3=C(O)CN(C4CCCCC4)C3=N)[nH]c2c1 | 0.42 | -2.66
Cc1ccc2nc(Nc3cccc(Cl)c3C)c3nnnn3c2c1 | -6.42 | ·
Cn1c(=O)c2c(-c3ccccc3F)n3c(c2n(C)c1=O)C(c1cccs1)Nc1ccccc1-3 (stereo not drawn) | -1.83 | -1.68
O=C(c1ccc(N2CCCc3ccccc32)s1)N1CCCC1 | -0.06 | ·
CC(=O)c1cccc(NC(=O)C(Cc2ccccc2)NS(=O)(=O)c2cccs2)c1 (stereo not drawn) | · | -0.93
Cc1ccc(Nc2nc(N3CCC(C)CC3)nc3c2cnn3C)cc1C | 1.17 | ·
Cc1c(NC(=O)Nc2ccc(Cl)cc2)c(=O)n(-c2ccccc2)n1C | -1.39 | -0.74
COc1cc2c(cc1OC)C(C)N(S(=O)(=O)c1cn(C)c(C)n1)CC2 (stereo not drawn) | · | -1.32
CCOC(=O)c1c(-c2ccccc2)oc2ccc(O)c(CN3CCCCC3)c12 | · | -2.35
CCOC(=O)c1c(S(=O)(=O)N2CCCC(C(=O)Nc3nc(C)cs3)C2)c(C)n(C)c1C (stereo not drawn) | 0.85 | ·
CC1CCC(NC(=O)Cn2c(=O)c3cccn3c3ccc(F)cc32)CC1 (stereo not drawn) | 0.55 | ·
CCCCCCCCCCC/C=C\C(C)(C)/C=C\CCCC(=O)O | · | -0.1
CCOc1cc(C)c2c(=O)c(Oc3ccccc3)c(C)oc2c1 | · | -1.26
O=C(OCc1cc(=O)n2c3c(sc2n1)CCCC3)c1ccccc1F | 0.34 | ·
NS(=O)(=O)c1cc(C(F)(F)F)cc(C(F)(F)F)c1 | · | -1.63
CC(C)Cn1c(CN2CCC(C)CC2)nc2c1c(=O)n(C)c(=O)n2C | · | -2.41
Cn1nnnc1SCCNCc1cccc(OCc2ccccc2Cl)c1 | 2.32 | -1.2
Cc1sc2ncnc(Nc3ccc(F)c(Cl)c3)c2c1S(=O)(=O)N1CCC(C)CC1 | · | -0.52
CCOC(=O)c1cn[nH]c1S(=O)(=O)Nc1cccc2c1CCCC2 | 0.71 | ·
O=S(=O)(Cc1ccccc1)NC(c1ccc(Cl)cc1)c1nnc(-c2ccccc2)o1 (stereo not drawn) | 0.97 | ·
COc1cc(OC)cc(C2=NC3(CCCCCC3)NC2=O)c1 | · | -0.1
CCCS(=O)(=O)Nc1ccc2c(c1)N(S(C)(=O)=O)CCC2 | 0.31 | ·
Cn1cc(NC(=O)N2CCc3ccccc32)c2ccccc2c1=O | -1.16 | ·
Cc1ccc(CN2C(=O)C(O)(c3c[nH]c4ccccc34)c3ccccc32)cc1 (stereo not drawn) | 1.31 | -0.09
O=C1c2[nH]nc(-c3ccccc3O)c2C(c2cccc(Br)c2)N1Cc1ccco1 (stereo not drawn) | 0.37 | 0.24
Cc1ccc(C)c(N2CCN(S(=O)(=O)c3cc(-c4cc(C)no4)ccc3C)CC2)c1 | -1.33 | ·
Cc1c(C)n(CC(O)CN2CCCCCC2)c2ccccc12 (stereo not drawn) | · | -2.21
Cn1c(-c2cccc(Br)c2)cnc1NCc1ccccc1F | -1.37 | -0.11
Cc1nnc2c3ccccc3nc(N3CCN(C(=O)c4ccco4)CC3)n12 | 0.25 | -1.35
O=C(c1ccccc1)c1nn(-c2ccc(C(F)(F)F)cc2)ccc1=O | · | -1.74
COCCCNc1sc(S(=O)(=O)c2ccc(C)cc2)nc1S(=O)(=O)c1ccc(C)cc1 | 1.79 | -2.41
CCOC(=O)c1noc2ncnc(N3CCN(C)CC3)c12 | -0.23 | ·
O=S(=O)(Nc1ccccc1F)c1ccc(-n2cccn2)cc1 | 0.46 | ·
COC(=O)c1ccc(Oc2nc(N(C)C)nc(N3CCCCC3)n2)cc1 | 1.23 | -1.14
Cc1oc2ccc(NS(=O)(=O)c3cccc4ccccc34)cc2c1C(=O)OC(C)C | 0.17 | -0.03
CCS(=O)(=O)N1CCCc2ccc(NS(=O)(=O)c3cc(C)c(C)cc3C)cc21 | 0.21 | ·
Continuation:
SMILES | TAR Tat displ | CDC25B-CDK2 inh
COc1cc(C2C3=C(CCCC3=O)N(C)C3=C2C(=O)CCC3)ccc1O | -0.2 | -0.52
O=C(CSc1nnc2c(n1)[nH]c1ccccc12)Nc1ccc(F)cc1 | 0.08 | -1.45
CCCSc1[nH]c2cc(OC)c(OC)cc2c1[N+](=O)[O-] | 1.36 | 3.61
CCC(=O)Nc1nnc(SCc2cc(=O)n3nc(C)sc3n2)s1 | 0.46 | ·
Cc1oc(-c2ccc(Cl)cc2)nc1Cn1c(=O)n(CC2CCCO2)c(=O)c2ccccc21 (stereo not drawn) | -0.58 | -1.33
CCOC(=O)c1c(N)sc2c(OC)c(Br)ccc12 | 2.43 | 0
CCN(c1cccc(C)c1)S(=O)(=O)c1ccc(-c2n[nH]c(C)c2C)s1 | -0.7 | ·
O=c1[nH]nc(-c2ccc(Cl)cc2)c2c1Nc1nnnn1C2c1ccc(F)cc1 (stereo not drawn) | -1.89 | -1.5
CN(C)CCCNc1cc(N2CCOCC2)c2noc3c2c1C(=O)c1ccccc1-3 | 12.2* | -2.63
COc1cccc(-c2n[nH]c3c2C(c2ccc(C(C)(C)C)cc2)NC3=O)c1 (stereo not drawn) | -1.64 | 0.16

Screening data deposited in PubChem BioAssay by Center for Chemical Genomics, University of Michigan.
